Screens as filed in PubChem BioAssay.
H5N1 CPE: MDCK cell protection from H5N1 avian flu. cytopathic effect, luminescence, 72 h; stronger effect = higher value; no value below 0 was filed and about half of the inactive calls have no number; reference of the scale not given here. actives 0.07% (n = 96,000). inhibition, % at 50 µM; in the data active = inhibition above about 25%
* hit, by the source's call; i = inactive.

SMILES	H5N1 CPE
COCCn1c(-c2cccs2)nc2c(c(=O)c3ccccc3n2C)c1=O	13
Cc1ccc(C(=O)OCC(=O)N2CCc3ccccc32)cc1	0.6
CCN1C(=O)c2cccc3c(NC(=O)C(C)(C)C)ccc1c23	i
CS(=O)(=O)N1CCN(c2ccccc2NC(=O)Cc2ccccc2)CC1	0.4
O[C@H]1C2CCC1C(N1CCCCC1)CC2 (stereo partly drawn)	1.3
CCC(C)[C@H](NC(=O)NCc1ccccc1)C(=O)O (stereo partly drawn)	0.9
Cn1c(NCc2ccco2)nc2c1c(=O)n(Cc1ccc(Cl)c(Cl)c1)c(=O)n2C	1.0
CC(OC(=O)C1CC=CCC1C(N)=O)C(Cl)=C(Cl)Cl (stereo not drawn)	1.2
O=C(NCCN1CCCC1)c1cc(-c2ccncc2)nc2ccc(S(=O)(=O)N3CCOCC3)cc12	i
CCOC(=O)CN1N=C(/C=C/c2ccc(C)cc2)CCC1=O	0.3
Cc1cccc(/C=N/NC(=O)C(C)Nc2cccc3ccccc23)n1 (stereo not drawn)	0.8
CN(CC(=O)O/N=C(\N)c1ccc([N+](=O)[O-])cc1)S(=O)(=O)c1ccccc1	i
CCN(CC)c1ccc2cc(C=O)c(=O)oc2c1	0.0
C=CCN1C(=O)CSc2ccc(C(=O)OCC)cc21	0.3
CCCCC(=O)Nc1sc2c(c1C(=O)OCC)CCC(C=O)=C2Cl	i
CCc1ccc(N2C(=O)/C(=C/c3cccs3)N(CC(=O)OC)C2=S)cc1	i
Cn1c(=O)c2nnn(/N=C(\c3ccccc3)C3CC3)c2n(C)c1=O	1.4
CCOC(=O)Cc1csc(NC(=O)c2ccc(Cl)nc2)n1	i
Cc1noc(/C=C/c2ccc(-c3ccccc3Cl)o2)c1[N+](=O)[O-]	i
O=C(O)c1cccc(NS(=O)(=O)/C=C/c2ccccc2)c1	1.1
O=C(O)C1C2C=CC3(CN(Cc4ccccn4)C(=O)C13)O2 (stereo not drawn)	i
COc1ccc(OCCC(=O)NCc2ccccc2)cc1	1.1
CSCCC(NC(N)=O)C(=O)NCc1cccc(Cl)c1 (stereo not drawn)	i
COCCNC(=O)c1c(N)n(CCCn2ccnc2)c2nc3ccccc3nc12	i
O=C1CC(c2ccccc2)CN1S(=O)(=O)c1ccccc1 (stereo not drawn)	1.1
O=C(Cn1ncc2c(=O)oc3ccccc3c21)NCCC1=CCCCC1	0.4
CCOC(=O)CC1C(=O)NCCN1C(=O)Nc1ccc(Cl)cc1 (stereo not drawn)	1.1
O=C(C1=C(O)C(=O)N(CCCN2CCOCC2)C1c1ccccn1)c1cc2ccccc2o1 (stereo not drawn)	2.1
O=C(NNC(=O)c1cccc2ccccc12)c1ccco1	0.4
CCOc1cc(-c2noc(CCCC(N)=O)n2)cc(Br)c1OC	i
CCCN1CCC2(CC1)NC(CO)(CO)CO2	i
CCOC(=O)C1CCCN(Cc2nc(N)nc(Nc3ccccc3OC)n2)C1 (stereo not drawn)	i
Clc1ccc(OCc2nc(-c3ccncc3)no2)cc1	i
O=C(c1cc(Br)c(Br)s1)N1CCN(C/C=C/c2ccccc2)CC1	i
CCC(C)C(=O)N1c2ccccc2C(=C2SC(C(=O)OC)=C(C(=O)OC)S2)C(=S)C1(C)C (stereo not drawn)	11
CCOC(=O)Cc1csc(SCC(=O)/C(C#N)=C(\C)N)n1	0.4
CCOC(=O)c1ccccc1NC(=O)/C=C/c1cc(OC)c(OC)c(OC)c1	i
O=C(CSc1nnc(-c2ccccc2)n1-c1ccccc1)c1cccs1	i
Cc1cc(C)c(S(C)(=O)=O)c(S(=O)(=O)c2ccc(Cl)cc2)n1	i
COc1cc(C2C3=C(CCCC3=O)Nc3[nH]n(-c4ccccc4)c(=O)c32)ccc1O (stereo not drawn)	i
O=C1C=C(N(CCO)CCO)C2(CCCCC2)O1	i
Cc1ccc(S(=O)(=O)n2nc(-c3ccc(Cl)cc3)nc2NCc2ccco2)cc1	2.4
Cc1cc(C(=O)Nc2nc3ccc(S(C)(=O)=O)cc3s2)c(C)o1	i
CCC(C)NC(=O)CSc1nnc(-c2cc(-c3cccs3)nc3ccccc23)o1 (stereo not drawn)	1.6
COC(=O)c1cc(C#N)c(NCc2ccccc2)nc1C	i

Another view of part of the listing above.
CCOC(=O)C1CCCN(Cc2nc(N)nc(Nc3ccccc3OC)n2)C1 (stereo not drawn)
  H5N1 CPE: i

Clc1ccc(OCc2nc(-c3ccncc3)no2)cc1
  H5N1 CPE: i

O=C(c1cc(Br)c(Br)s1)N1CCN(C/C=C/c2ccccc2)CC1
  H5N1 CPE: i

CCC(C)C(=O)N1c2ccccc2C(=C2SC(C(=O)OC)=C(C(=O)OC)S2)C(=S)C1(C)C (stereo not drawn)
  H5N1 CPE: 11

4 records drawn at random from the list so far, as already listed:
SMILES	H5N1 CPE
COC(=O)c1cc(C#N)c(NCc2ccccc2)nc1C	i
C=CCN1C(=O)CSc2ccc(C(=O)OCC)cc21	0.3
O=C(C1=C(O)C(=O)N(CCCN2CCOCC2)C1c1ccccn1)c1cc2ccccc2o1 (stereo not drawn)	2.1
CCN1C(=O)c2cccc3c(NC(=O)C(C)(C)C)ccc1c23	i

(cont.)
SMILES	H5N1 CPE
O=C(NC1CCCCC1)C(c1ccc2ncccc2c1)N(Cc1ccccc1)C(=O)c1cccs1 (stereo not drawn)	0.3
c1ccc(CCc2nc(-c3ccc(-n4cccc4)cc3)no2)cc1	i
CC1CCc2sc3nc(N4CCN(CCO)CC4)n4ncnc4c3c2C1 (stereo not drawn)	i
O=C(COC(=O)CSCC(=O)N1CCCCC1)Nc1ccc(Cl)cc1	0.3
Cc1ccc(C(=O)NCCc2csc(C)n2)cc1	0.6
CC(c1ccccc1)C1CC(=O)N(CC(=O)O)C1=O (stereo not drawn)	i
CCCn1cnc2c(N)c(C)c(C)cc21	i
O=C1CC(c2ccc(S(=O)(=O)N3CCN(c4ccccc4)CC3)cc2)CN1 (stereo not drawn)	0.2
CC(C)COn1c(=S)[nH]c2ccccc2c1=O	0.1
COc1ccc(NC(=O)C(c2ccc(C)cc2)N(C)C(=O)CNC(C)=O)cc1 (stereo not drawn)	i
COc1ccc(CCN(C)CCN2C(=O)c3ccccc3C2=O)cc1OC	i
Cc1ccc(SCc2cc(=O)[nH]c(N3CCOCC3)n2)cc1	i
Cn1c(=O)n(CC(=O)O)c(=O)c2c1nc1n2CCS1	1.4
Cc1ccc2nc(SCCC#N)nc(C)c2c1	0.0
COc1cc2c(cc1OC)C(C)N(C(=O)Cn1ncc3c1-c1cc(C)ccc1OC3)CC2 (stereo not drawn)	0.3
c1ccc(CN2CCN(CCN3CCn4c3nc3ccccc34)CC2)cc1	0.9
Cc1ccc(/C=N/N2CCN(Cc3ccccc3)CC2)s1	i
COc1c(C)cccc1C(=O)Nc1ccc(CN2CCOCC2)cc1	0.1
CCCCCn1c(SCCCC)nc2c1c(=O)[nH]c(=O)n2C	i
O=C(CN1CCN(c2ccccc2)CC1)N1N=CCC1c1ccccc1 (stereo not drawn)	i
C=CCn1c(SCn2nnc3ccccc3c2=O)nnc1-c1ccc(Br)cc1	3.9
COC(=O)C1C(O)=C(C=Nc2ccc(N)cc2)C(=O)CC1(C)C (stereo not drawn)	0.5
CC1(C)CC(NC(=O)CCc2ccccc2)CC(C)(C)N1	0.7
COc1cc2nc(-c3ccc(Br)o3)oc(=O)c2cc1OC	i
c1cnc(NC2CCCCCC2)nc1	0.6
COc1ccc(C)cc1NC(=O)CSc1nnnn1Cc1ccccc1	0.3
Cc1ccc2c(c1)C(=O)C(=O)N2CC(=O)OC(C)C	i
Cn1c(=O)oc2cc(S(=O)(=O)NCCC(=O)Nc3ccc4c(c3)OCCO4)ccc21	i
COc1cc2c(O)c3c(c(-c4ccc5c(c4)OCO5)c2cc1OC)C(=O)OC3	i
CN(C)S(=O)(=O)Nc1ccc(Br)cc1F	1.0

Of the compounds above, these contain a thiophene ring, fused or not:
SMILES	H5N1 CPE
COCCn1c(-c2cccs2)nc2c(c(=O)c3ccccc3n2C)c1=O	13
CCCCC(=O)Nc1sc2c(c1C(=O)OCC)CCC(C=O)=C2Cl	i
CCc1ccc(N2C(=O)/C(=C/c3cccs3)N(CC(=O)OC)C2=S)cc1	i
O=C(c1cc(Br)c(Br)s1)N1CCN(C/C=C/c2ccccc2)CC1	i
O=C(CSc1nnc(-c2ccccc2)n1-c1ccccc1)c1cccs1	i
CCC(C)NC(=O)CSc1nnc(-c2cc(-c3cccs3)nc3ccccc23)o1 (stereo not drawn)	1.6
O=C(NC1CCCCC1)C(c1ccc2ncccc2c1)N(Cc1ccccc1)C(=O)c1cccs1 (stereo not drawn)	0.3
CC1CCc2sc3nc(N4CCN(CCO)CC4)n4ncnc4c3c2C1 (stereo not drawn)	i
Cc1ccc(/C=N/N2CCN(Cc3ccccc3)CC2)s1	i

Next results follow:
SMILES	H5N1 CPE
O=C(c1cccs1)N1N=C(c2ccccc2)CC1c1ccccc1 (stereo not drawn)	i
Cc1cccc(OCC(O)Cn2c(NCc3cccnc3)nc3c2c(=O)[nH]c(=O)n3C)c1 (stereo not drawn)	0.6
COc1ccc(S(=O)(=O)N(C)C2CCS(=O)(=O)C2)cc1OC (stereo not drawn)	0.3
CC1(C)CC(=O)C(/C=N/n2cnc3ccccc3c2=O)=C(O)C1	1.3
COC(=O)c1sc(=S)n(-c2ccccc2OC)c1N	i
Cc1cnc(NC(=O)CCCc2nc3ccccc3s2)s1	4.5
Cc1ccc(S(=O)(=O)NNc2nc3ccccc3nc2C(F)(F)F)cc1	0.5
COCC(C)n1c(C)cc(C(=O)COC(=O)c2ccc3ncsc3c2)c1C (stereo not drawn)	i
O=C(CCS(=O)(=O)c1cccc2nsnc12)N1CCN(C(=O)c2ccco2)CC1	0.4
Cc1ccccc1C(=O)N1CCC(C(=O)Nc2ccc(S(=O)(=O)N3CCCC3)cc2)CC1	0.4
CC1CCCCN1C(=O)CSc1nnc(-c2ccco2)n1CC1CCCO1 (stereo not drawn)	0.3
CS(=O)(=O)N1CCN(c2ccccc2NC(=O)c2ccc(Cl)cc2)CC1	i
Cc1cc(C)nc(SCc2nnc(SCC(=O)Nc3ccccc3C)n2Cc2ccco2)n1	0.2
CC(O)CNC(=O)c1ccc(-c2nn(C)c(=O)c3ccccc23)cc1 (stereo not drawn)	0.6
COc1cccc(C2C=C(c3cccs3)Nc3ncnn32)c1OC (stereo not drawn)	0.7
CCOC(=O)c1c(C)oc2ccc(O)c(CN(C)C)c12	0.5
CCCC(=O)c1ccc(N2CCN(C(=O)c3ccccc3)CC2)c(F)c1	0.8
C/C(=N/OC(=O)c1c(F)cccc1F)c1nccs1	0.1
Cc1ccc(NC(=O)COc2ccc(/C=N/NC(=O)CSCc3ccccc3)cc2)cc1	i
CC(OC(=O)c1cccs1)C(=O)NCc1ccccc1 (stereo not drawn)	0.3
Cc1ccc2[nH]c(=O)c3cc(C(=O)N(C)Cc4ccco4)sc3c2c1	i
Cc1cc(NC(=O)c2noc3c2CCc2ccccc2-3)n(-c2ccccc2)n1	i
CCCCN=C1NC(=O)C(CC(=O)Nc2ccc(Cl)cc2)S1 (stereo not drawn)	i
Cc1ccc(C(=O)NCc2nnc(SCC(=O)Nc3sc4c(c3C#N)CCCC4)n2C)cc1	1.2
Cc1ccc(OCC(=O)NCCO)cc1C	1.7
CS(=O)(=O)N(CC(=O)NCc1ccccc1)Cc1ccc(Cl)cc1	i
O=C(O)c1cn[nH]c1-n1cnnn1	i
COc1ccc(NC(=O)c2ccc(OC)cc2)cc1	0.8
CCN(CCCNc1ncnc2nc[nH]c12)c1cccc(C)c1	1.7
O=C(c1cccs1)N(Cc1cccc(Cl)c1)C1CCS(=O)(=O)C1 (stereo not drawn)	0.7
CCc1nn2c(=O)cc(N3CCN(c4cc(C)nc5ccccc45)CC3)nc2s1	0.6
O=C1C2CC=C(Cl)CC2C(=O)N1CC1Cc2ccccc2CO1 (stereo not drawn)	1.7
CC(=O)c1cnn(-c2nc3c(C)cccc3s2)c1C	1.0
CC(C)Cc1cc(-c2ccco2)c(C#N)c(N)n1	3.0
O=C(O)/C=C\C(=O)Nc1ccccc1C(=O)N1CCN(c2ccc(Cl)cc2)CC1	i
Cc1ccc(C(C)C)c(OCCN)c1	i
N#C/C(=N\Nc1ccccc1Cl)C(=O)c1ccccc1	i
O=C(Nc1cccc(Cl)c1Cl)C1CCN(c2ncccn2)CC1	i
CCOC(=O)c1cc(C)n(Cc2ccccc2)c1C	1.1
O=C(CCn1cccc1)N1CCc2ccccc21	0.6
CC(C)NC(=O)/C(=C\c1cccc([N+](=O)[O-])c1)NC(=O)c1ccccc1	0.9
CCC(C)OC(=O)C1C(c2ccccc2)C(C(=O)O)C1c1ccccc1 (stereo not drawn)	i
Cc1cc(C)nc(N2CCN(c3nc(C)cc(C)n3)CC2)n1	0.3
CC1CCC(C(C)C)C(OC(=O)CSc2nc(N)cc(=O)[nH]2)C1 (stereo not drawn)	i
O=C(c1nn2c(C(F)(F)F)cc(-c3ccccc3)nc2c1Cl)N1CCOCC1	1.3
CCN1C(=O)c2cccc3c(S(=O)(=O)Nc4c(C)n(C)n(-c5ccccc5)c4=O)ccc1c23	2.3
COc1ccc(NC(=O)CSc2nnnn2-c2ccc(OC)cc2)cc1	i
COC(=O)[C@H](CC(C)C)NC(=O)Nc1ccc2c(c1)OCCO2	0.5
CCN(CCO)C(=O)C(c1ccccc1)c1ccccc1	0.6
O=C(CCSc1nc(-c2ccco2)cc(C(F)(F)F)n1)N1CCCc2ccccc21	4.5
Nc1ccc(C(=O)c2ccccc2C(=O)O)cc1Cl	0.5
O=C(Nc1ccc2c(c1)oc1ccccc12)N1CCOCC1	1.0
CCCCNC(=O)c1onc(CSc2ccccc2F)c1C(=O)O	i
Cc1ccc(-n2c(SCC(=O)NCc3ccco3)nc3nc4c(cc3c2=O)COC(C)(C)C4)cc1	0.7
CCOC(=O)/C=C1\NC(C)(C)Cc2cc(OC)c(O)cc21	i
O=C(CN1C(=O)C2CC=C(Cl)CC2C1=O)N1CCOCC1 (stereo not drawn)	i
CCC(=O)Nc1ccc(Cl)c(NC(=O)c2ccc(Br)o2)c1	0.2
COc1cc(NC(=O)C2C3C=CC(C3)C2C(=O)O)c(OC)cc1Cl (stereo not drawn)	0.2
COc1ccc(C(=O)Nc2ccc3c(c2)Cc2ccccc2-3)cc1	i
CCCc1ccc(Oc2cn[nH]c2-c2ccc(O)c(C)c2O)cc1	1.9
O=C(COC(=O)c1ccc(S(=O)(=O)N2CCOCC2)cc1)NC1CCCC1	i

This is a subset (hit frequency here may not be typical).
